MgrA DNA FP: modulators of Staphylococcus aureus MgrA DNA binding; fluorescence polarization; inhibition, %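 (about 10 µg/mL by stock and volumes)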; actives 0.13% (n = 84,000); AID 602314;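 active = above 50% in either of two replicates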;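 also: 0% = protein plus DNA without compound and 100% = DNA alone without protein; higher means less MgrA bound to DNA so lower polarization; one replicate is shown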
S aureus helic: blocks Staphylococcus aureus DNA helicase. purified S. aureus helicase, fluorescence unwinding assay; about half of the hits fall short of the stated cut. inhibition, %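 (tested at about 80 µM)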. actives 0.05% (n = 120,000);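 active = both duplicates at 50% or more, or one of them with a favoured structure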;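 also: 0% = mean of negative control wells and 100% = mean of positive control wells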
The depositor's hits bear a star; . = not tested or not shown; & = joins results of further samples. This is a subset; rates above refer to the full screens.

SMILES	MgrA DNA FP	S aureus helic
CC(C)c1cc(N)cc(C(C)C)c1O	-0.1	15
O=C(O)c1ccc2c(c1)nc1n2CCCC1	-1.3	9
CC1=C(C(=O)N(C)C)C(c2cccs2)NC(=O)N1 (stereo unspecified)	-2.7	-2
Cc1[nH]nc2c1C(C(C)C)C(C#N)=C(N)O2 (stereo unspecified)	-1.9	15
CCOc1ccc(C2C3=C(CCCC3=O)NC3=C2C(=O)c2ccccc23)cc1 (stereo unspecified)	.	-6
Cc1ccc(C2C=C(c3ccccc3)NC(=O)C2C#N)cc1 (stereo unspecified)	3.3	-2
O=C1[C@H]2CSC3(C(=O)c4ccccc4C3=O)N2C(=O)[C@H]2CSC3(C(=O)c4ccccc4C3=O)N12	.	27
CC(N=C1NC(C)(C)Cc2ccccc21)C(=O)O (stereo unspecified)	2.2	5
CCOC(=O)CCCn1ncn2c(cc3occc32)c1=O	.	4
O=C(O)/C=C\C(=O)N1CCN(Cc2ccc3c(c2)OCO3)CC1	-2.9	6
COc1ccc(C(=O)OCC(=O)Nc2ccc(N(C)C)cc2)cc1	.	-4
NC(=O)c1ccc(NC(=O)c2ccccc2C(=O)O)cc1	-4.2	9
O=C1NC(c2ccco2)Nc2ccccc21 (stereo unspecified)	-2.0	0
CN(C)CCCNc1nc(-c2cccnc2)nc2ccccc12	.	-23
OCc1ccccc1CNc1ccc(F)cc1	-11	7
COc1ccc(/C=C(/NC(=O)c2ccccc2)C(=O)N2CC3(C)CC2CC(C)(C)C3)cc1 (stereo unspecified)	-3.3	10
Cc1cc(C)cc(N2CC34C=CC(O3)C(C(=O)OCC(=O)NC3CCCC3)C4C2=O)c1 (stereo unspecified)	0.7	9
CSc1ccccc1NC(=O)CC1Nc2ccccc2NC1=O (stereo unspecified)	.	-31
CNC(=O)c1sc(Nc2ccc(OC)cc2)nc1C	.	2
Cc1nn(CCCC(=O)O)c(=O)c2c1sc1ccccc12	0.5	14
Cc1ccc(CCP(=O)(O)CCc2ccc(C)nc2)cn1	3.5	5
Cc1cc(=O)oc2cc(OCC(=O)c3cccs3)ccc12	.	11
Cc1ccc2oc(-c3ccc4c(c3)OCO4)cc(=NC(C)C(=O)O)c2c1 (stereo unspecified)	.	5
CC(C)COC(=O)c1ccccc1OC(=O)c1ccncc1	.	-4
Cc1ccc(CNCCc2cccs2)s1	.	-7

3 of the entries above in order of the MgrA DNA FP value, rising:
SMILES	MgrA DNA FP	S aureus helic
NC(=O)c1ccc(NC(=O)c2ccccc2C(=O)O)cc1	-4.2	9
O=C(O)/C=C\C(=O)N1CCN(Cc2ccc3c(c2)OCO3)CC1	-2.9	6
Cc1[nH]nc2c1C(C(C)C)C(C#N)=C(N)O2 (stereo unspecified)	-1.9	15

Remaining list, next part.
SMILES	MgrA DNA FP	S aureus helic
NC(=O)Nc1cc(Cl)ccc1Cl	1.7	.
O=C(O)c1ccccc1C(=O)NCCc1ccccc1	-1.4	7
Nc1cc2c(cc1Cl)OCCO2	-3.2	-5
O=C1c2ccccc2C(=O)C1c1ccccc1F	-3.2	.
CCOC(=O)c1ccccc1NC(=O)Cn1c(-c2cccs2)noc1=O	-0.8	2
CCn1c(CSc2nnc3ccccn23)nc2cc(S(=O)(=O)N(C)C)ccc21	.	-10
COc1ccc(-c2cn3c(C)c(C(=O)N4CCc5ccccc54)sc3n2)cc1	0.6	18
Cc1nc(SC(C)C(=O)NC2(C#N)CCCCC2)c2ccccc2n1 (stereo unspecified)	.	8
FC(F)(F)c1cc(-c2ccc3ccccc3c2)nn1C(=S)N1CCOCC1	0.2	7
OC(CNCc1cn(-c2ccccc2)nc1-c1cccs1)CN1CCOCC1 (stereo unspecified)	.	-5
Cc1nc2ccccc2c2oc(C(=O)N3CCC(C)CC3)cc12	-2.7	11
CCOC(=O)C1=C(C)N2CCN=C2S1	-1.5	2
Cn1c(SCC(=O)NCCC2=CCCCC2)nc2sccc2c1=O	.	8
O=c1[nH]nc(N2CCSCC2)[nH]1	-0.5	.
Cn1c(Cc2noc(-c3ccccc3)n2)nc2ccccc21	.	7
CSc1cc(-c2ccc(Oc3ccccc3)cc2)[nH]n1	-0.4	.
CCc1cccc(NC(=S)N(C)Cc2cn(C)c3ccccc23)c1	0.6	2
COc1cc(/C=c2\sc3nc(-c4ccccc4C)nn3c2=O)cc(Br)c1OC(C)=O	0.5	-5
O=C1O/C(=C\c2ccccc2)c2ccccc21	.	14
CCOc1ccc(S(=O)(=O)N2CCC(C)CC2)cc1	.	9
CCOC(=O)c1ccc2c(c1)sc1nc(-c3ccc(C)cc3C)cn12	-1.1	10
O=C(/C=C/c1ccc(OC(F)(F)F)cc1)N1CCOCC1	-1.5	.
Cc1cccc(-c2noc(CN(C(=O)Cc3ccccc3)C(C)C)n2)c1	6.8	15
NS(=O)(=O)c1ccc(NC(=O)CN2CCCCCC2)cc1	.	19
COc1cccc(C(N)=O)c1OCC(=O)N(C1CCCCC1)C1CCCCC1	.	-1

Three entries out of the list, ordered by SMILES length, highest first.
SMILES	MgrA DNA FP	S aureus helic
OC(CNCc1cn(-c2ccccc2)nc1-c1cccs1)CN1CCOCC1 (stereo unspecified)	.	-5
Cc1nc(SC(C)C(=O)NC2(C#N)CCCCC2)c2ccccc2n1 (stereo unspecified)	.	8
CCc1cccc(NC(=S)N(C)Cc2cn(C)c3ccccc23)c1	0.6	2

(further entries)
SMILES	MgrA DNA FP	S aureus helic
NC(=O)c1cccnc1Sc1ccc(Cl)cc1	-1.3	.
O=C(O)C1CSC2(C(=O)O)CCC(=O)N12 (stereo unspecified)	.	3
Nc1ccnn1CC1CCCCC1	.	-7
CCOc1ncccc1C(=O)OCc1cc(=O)n2cc(Br)ccc2n1	.	-6
CC(=O)Nc1cc(Cl)ccc1Nc1ccccc1	2.4	17
CCN=C1SC(CC(=O)Nc2sc(C)c(C)c2C(=O)OCC)C(=O)N1CC (stereo unspecified)	.	-2
CC(C)CN1CCC(CNC(=O)c2cccc3c2C(=O)N(Cc2cccnc2)C3)C1 (stereo unspecified)	.	8
NOCc1ccccc1C(F)(F)F	-4.6	.
O=C(CCc1nnc2ccc(N3CCCCC3)nn12)N1CCCC1	.	-13
O=C(NCc1cn2ccsc2n1)Nc1ccc(Cc2ccc(NC(=O)NCc3cn4ccsc4n3)cc2)cc1	.	11
O=C(NN1C(=O)/C(=C2/C(=O)N(Cc3ccccc3)c3ccccc32)SC1=S)c1ccncc1	1.1	.
CC1=NN(C(=O)c2ccccc2)C(O)(c2ccc(Cl)cc2)C1 (stereo unspecified)	1.4	6
Cc1noc(C)c1CC(=O)N(Cc1ccccc1)c1nc2c(s1)CCCC2	.	-14
O=C1CC2(CCN(C(=O)Cc3ccccc3)CC2)Oc2ccccc21	.	8
O=C1NCCN1CCNS(=O)(=O)c1ccc(N2C(=O)CCC2=O)cc1	.	-5
CCOc1ccc(/C=C/C(=O)NCc2ccco2)cc1OC	-2.1	5
CN1C(=O)/C(=C/c2cn(CC(=O)N3CCOCC3)c3ccccc23)C(=O)NC1=S	1.4	5
Cc1cc(/C=C2\C(=O)NC(=S)N(c3ccc(F)cc3)C2=O)c(C)n1-c1ccccc1	4.4	.
COc1ccc(COC(=O)C2=C(C)NC(=O)NC2c2ccc(Cl)c(Cl)c2)cc1 (stereo unspecified)	-0.2	.
Cc1cccc(NC2CC(=O)N(c3cccc(Cl)c3)C2=O)c1 (stereo unspecified)	-1.4	0
CC12CCC(=O)N1C(C(=O)OCC(=O)N1c3ccccc3NC(=O)C1(C)C)CS2 (stereo unspecified)	.	-5
CCC1(C)CC(CCN)(c2ccc(F)cc2)CCO1 (stereo unspecified)	-3.6	15
CCC(C)c1ccc(NC(=O)CSc2nncn2N)cc1 (stereo unspecified)	0.1	4
COc1ccc(-c2cc(C(=O)N3CCC4(CC3)OCCO4)[nH]n2)cc1	-6.5	15
N#Cc1cccc2c1[nH]c1ccc(Cl)cc12	3.7	19
Other results.
SMILES	MgrA DNA FP	S aureus helic
COc1ccc2cc(C(=O)NC(C)=O)c(=Nc3ccc(C(F)(F)F)cc3)oc2c1	-1.3	.
CC(=O)OC(C(=O)Nc1nc2ccccc2s1)c1ccccc1 (stereo unspecified)	2.6	7
CCOc1ccc2nc(NC(=O)COc3ccccc3)sc2c1	.	19
NC(=O)C(C(=O)/C=C/c1ccc(F)cc1)=C1SCS1	.	-5
COc1ccc(/C=C/C(=O)N2c3ccccc3Sc3ccccc32)c(OC)c1	0.2	16
O/N=C/c1cccn1-c1ccccc1F	0.0	.
Cc1cc(/C=C2/SC(=O)N(C(C)C)C2=O)c(C)n1-c1ccncc1	2.6	10
COc1c(Cl)cc(Cl)cc1CNCC1CCCO1 (stereo unspecified)	-0.1	5
O/N=C/c1c(O)ccc2ccccc12	-1.5	9
CC(C)(C)C(N)=NC#N	.	27
COC(=O)c1ccc(C(=O)OC)c(NC(=S)N2CCCCC2C)c1 (stereo unspecified)	1.0	4
O=C(O)[C@@H]1CCCCN1C(=O)OCC1c2ccccc2-c2ccccc21	.	-19
O=C(CC(c1cccs1)N1Cc2ccccc2C1=O)NCCN1CCOCC1 (stereo unspecified)	.	-22
Cc1ccc(-c2csnn2)cc1	0.0	.
CCOC(=O)c1[nH]c(C)c(C(=O)OCC)c1C	-4.2	.
COc1ccc(OCCNC(=O)c2nccnc2C(=O)O)cc1	-0.7	.
O=C1c2nccnc2C(=O)N1C(c1ccccc1)c1ccccc1	1.4	.
Cn1ccnc1SCC(=O)N1Cc2ccccc2CC1C(=O)O (stereo unspecified)	.	7
N=C1CCCN1CC(=O)c1ccc(Br)cc1	-3.3	0
N#Cc1ccc(COC(=O)CCC2CCCC2)cc1	-2.0	21
COc1ccc(/C=c2\sc3n(c2=O)C(c2c(OC)ccc4ccccc24)C(C(C)=O)=C(C)N=3)c(OC)c1 (stereo unspecified)	-0.5	.
O=C(c1c[nH]c2ccccc12)N1CCN(c2ccccc2)CC1	1.1	.
Clc1ccc(OCCBr)c(Cl)c1	1.0	.
CN(C)S(=O)(=O)c1cccc(C(=O)N=c2sc3ccccc3n2C)c1	.	-10
CC(C)c1ccc(NC(=O)CN2N=C(c3ccc(Cl)cc3)CCC2=O)cc1	0.7	9
(further entries)
SMILES	MgrA DNA FP	S aureus helic
COc1ccc(-c2noc(NCC3CCCO3)n2)cc1 (stereo unspecified)	.	6
O=c1oc(-c2ccccc2)nc2sc3c(c12)CCCC3	-0.7	.
Cc1ccc(S(=O)(=O)N2CCC(N)=N2)cc1	0.4	.
O=C(Nc1ccc(S(=O)(=O)N2CCCCC2c2cccnc2)cc1)c1ccc(Cl)cc1 (stereo unspecified)	.	-9
O=C(CSc1nnc2n1CCCCC2)Nc1cccc2ccccc12	.	-16
O=C(Nc1ccccn1)Nc1cccs1	.	21
Cc1nnc(SCC(=O)NCCc2ccco2)c2nn(-c3ccccc3)c(C)c12	.	-27
CCN(CC)S(=O)(=O)c1cccc2cc(C(=O)O)c(O)cc12	-1.3	6
CCOC(=O)C1CCN(C(=O)/C(=C/c2ccc(F)cc2)c2ccsc2)CC1	2.9	11
O=C(O)c1ccccc1Nc1cccc(C(F)(F)F)c1	5.3&-1.2&3.2	.
COc1cc(NC(=O)CNCC(C)C)cc(OC)c1OC	.	-2
CN1CCN(S(=O)(=O)c2ccc(N3CCN(c4ccccc4Cl)CC3)nc2)CC1	.	-14
S=C(NCCc1ccccc1)NCC(c1cccnc1)N1CCOCC1 (stereo unspecified)	-1.3	11
O=C1c2ccccc2C(=O)N1CCc1c[nH]c2ccccc12	1.4	-1
CCN(CC)S(=O)(=O)c1cccc(C(=O)OCc2cc(=O)n3cc(C)ccc3n2)c1	.	-6
CCCOc1cccc(C(=O)NCc2cccnc2)c1	-0.4	15
Cc1cc(=O)[nH]c2c1c(=O)[nH]n2C1CC(C)N(C)CC1C (stereo unspecified)	1.5	9
O=C(NC(=O)c1ccc(F)cc1F)c1ccccc1O	1.1	.
CCC(=O)Nc1ccc(C#N)cc1	-0.9	13
CCc1nnc(NC(=O)Cn2nc(Cc3ccncc3)c3ccccc3c2=O)s1	.	3
CS(=O)(=O)c1[nH]nc(-c2ccccc2Cl)c1C#N	.	-5
CCN(CC)C(=S)Nc1ccc2nc3n(c(=O)c2c1)CCCCC3	.	-1
CSc1nc2ccccc2c(=O)n1CC(=O)C(C)(C)C	-1.4	.
O=C1CSC(=NC(=O)C2CC2)N1	.	-17
O=C(O)CCC(=O)N1CCOc2ccccc21	-0.2	7

Grouped by structure, those above with a tert-butyl group.
SMILES	MgrA DNA FP	S aureus helic
CC(C)(C)C(N)=NC#N	.	27
CSc1nc2ccccc2c(=O)n1CC(=O)C(C)(C)C	-1.4	.

The results go on.
SMILES	MgrA DNA FP	S aureus helic
CC1CCN(Cn2nc(-c3ccccc3)oc2=S)CC1	1.4	8
Cc1ccc(S(=O)(=O)NC(=O)Oc2ccccc2N2CCOCC2)cc1	-0.7	.
CCc1nn2c(=O)cc(CN3c4ccccc4CC3C)nc2s1 (stereo unspecified)	.	-7
Cn1c2ccc(N=Cc3ccccc3O)cc2c2nc3ccccc3nc21	1.7	-15
Cc1cc(C)c(-c2csc(N)n2)c(C)c1	.	-13
COc1ccc(CCN(C)C(C)C(=O)NC2CCCC2)cc1OC (stereo unspecified)	.	14
CCOC(=O)c1[nH]c(C)c(C(=O)NCCc2ccc(OC)c(OC)c2)c1CC	0.0	11
CCCCc1cc(=O)oc2cc(OCC(N)=O)ccc12	0.6	7
O=C1OCCCN=C(c2ccccc2)c2ccccc21	3.1	.
CCC(=O)N(C)c1nc(-c2ccc(Cl)s2)cs1	1.2	.

Five of these compounds in a different format:
Results follow in this order: MgrA DNA FP, S aureus helic
CCOC(=O)c1[nH]c(C)c(C(=O)NCCc2ccc(OC)c(OC)c2)c1CC
→ 0.0, 11
COc1ccc(CCN(C)C(C)C(=O)NC2CCCC2)cc1OC (stereo unspecified)
→ ., 14
O=C1OCCCN=C(c2ccccc2)c2ccccc21
→ 3.1, .
CCC(=O)N(C)c1nc(-c2ccc(Cl)s2)cs1
→ 1.2, .
CCCCc1cc(=O)oc2cc(OCC(N)=O)ccc12
→ 0.6, 7

Screening results as filed in PubChem BioAssay.
